Mtb hypoxia inh = reduces hypoxia-regulated biosensor signal in M. tuberculosis. 300,000 tested, 0.1% active. M. tuberculosis hypoxia-regulated fluorescent reporter, fluorescence. fluorescence inhibition, % (concentration not given with the values);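 active = 35 to 45% if threefold the growth effect, above 45% if 1.5-fold the growth effect; inactive = the rest, general growth blockers included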;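 also: wells of about 50 µL received 100 nL stock; 0% = vehicle wells and 100% = reference inhibitor wells; whole bacteria with a GFP reporter of the hypoxia response; strong numbers were not always called active; many hits fall short of the cut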
RN4220 kill = S. aureus RN4220 growth inhibition; OD600, 16 h; inhibition, % (concentration not given with the values); 330,000 tested, 0.33% active;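 active = z-score of -3 or lower and OD600 up to 0.18 on both plates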;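 also: plate controls were untreated cells for no effect and reference antibiotic for full effect; stock transfer was 100 nL into about 80 µL; one replicate is shown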
PrP 5UTR inh = inhibition of PrP 5' UTR reporter expression. cell-based PrP 5' UTR mRNA reporter, plate reader. inhibition, % (concentration not given with the values). 340,000 tested, 0.35% active;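 active = every replicate at 50% or more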;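 also: 0 = median of the neutral control wells; tested in H4 reporter cells; numbers are from one replicate; inactives centre near -14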
Autofluor counter = counter-screen for toxin protease inhibitors: compound fluorescence; compound autofluorescence counterscreen, microsphere flow cytometry; stronger effect = higher value; fluorescence intensity (no concentration beside the values); 360,000 tested, 3.1% active; AID 624483;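 active = at least 3 SD above the mean of all compounds, about 16000 in these data; inconclusive = too few beads counted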;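 also: 100 nL of 1 mM stock went into each well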
BJeLR lethal = kills HRASV12-expressing BJeLR cells. BJeLR (HRASV12) viability, CellTiter-Glo ATP luminescence, 48 h; reference of the scale not given here. inhibition, % (test concentration not listed). 300,000 tested, 0.17% active;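 active = replicate mean above 50%; inconclusive = above 50% but judged a plate artefact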;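 also: 50 nL library stock added to about 25 µL; numbers are from one replicate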
ugtP null kill = compounds lethal to S. aureus RN4220 ugtP deletion mutant; AID 1259309; 330,000 tested, 0.54% active; growth inhibition, % (concentration not given with the values); OD600 growth, 16 h; some inactives read as strong as hits;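 active = z-score under -3 and OD600 up to 0.15 on both plates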;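 also: plate controls were untreated wells for no effect and antibiotic for full effect; wells of about 80 µL received 100 nL stock; the first replicate is given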
Mtb hypoxia inh growth = also measured in Mtb hypoxia inh; calls as there; growth inhibition, %; measured here: M. tuberculosis growth (absorbance);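 0% = vehicle and 100% = reference antibiotic; read after six days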
Starred values were filed as active, the others as inactive; ? = inconclusive; nt = not tested or not shown; & = joins results of further samples.

SMILES	Mtb hypoxia inh	Mtb hypoxia inh growth	RN4220 kill	PrP 5UTR inh	Autofluor counter	BJeLR lethal	ugtP null kill
CC=CC(=O)Nc1cccc(C2=NOC3(C2)CC(C(N)=O)N(C(=O)c2ccc(Cl)cc2)C3)c1 (configuration not stated)	0	4	-0.9	nt	nt	nt	-3
CC(=O)c1cccc(S(=O)(=O)Nc2c(C)nn(C)c2C)c1	11	0	3.9	nt	nt	nt	2
Cc1ccnc(Nc2nc(-c3ccc(F)cc3)cs2)c1	3	1	-14	-92	nt	4	59
CSc1ncccc1C(=O)OCC(=O)NC1CCS(=O)(=O)C1 (configuration not stated)	-7	7	13	-3	2424	0	1
COc1ccc(C2=NN(C(C)=O)C(c3ccccc3)C2)cc1 (configuration not stated)	11	-3	3.8	-26	nt	-1	0
O=C(O)CNS(=O)(=O)c1ccc(Br)s1	nt	nt	-4.9	-20	2764	9	9
CN(CCOc1ccccc1)CC(=O)Nc1cc([N+](=O)[O-])ccc1Cl	10	5	2.2	10	3384	4	4
CN(C)c1nc(/C=C(\C#N)C(N)=O)c(Cl)n1-c1ccc(F)cc1	15	0	4.7	-2	4724	-19	4
O=C(c1ccccc1F)n1c2c(c3ccccc31)CCCC2	1	8	-12	-31	3521	12	93*
CC(C)n1cnc2cc(NCc3ccco3)ccc21	7	9	2.1	-15	10590	-1	-7
O=C1CCCCCCC1Sc1ccccc1[N+](=O)[O-] (configuration not stated)	nt	nt	-1.8	-15	4262	-3	2
CN(C)c1ccc(/C=N/N=C(N)N)cc1[N+](=O)[O-]	nt	nt	nt	-20	4476	4	nt
CCOC(=O)Nc1ccc(C)cc1NC(=O)OCC	8	10	6.6	-15	3825	-3	8
COc1ccccc1C1(CC(=O)O)CCOC(C)(C)C1 (configuration not stated)	nt	nt	1.6	-15	2572	-6	2
O=C(NN=Cc1cccs1)c1cccc(S(=O)(=O)Nc2ccc(Cl)cc2)c1	16	13	2.5	nt	nt	nt	0

Structural class, the compounds so far containing an aryl methoxy group
SMILES	Mtb hypoxia inh	Mtb hypoxia inh growth	RN4220 kill	PrP 5UTR inh	Autofluor counter	BJeLR lethal	ugtP null kill
COc1ccc(C2=NN(C(C)=O)C(c3ccccc3)C2)cc1 (configuration not stated)	11	-3	3.8	-26	nt	-1	0
COc1ccccc1C1(CC(=O)O)CCOC(C)(C)C1 (configuration not stated)	nt	nt	1.6	-15	2572	-6	2

Later entries:
SMILES	Mtb hypoxia inh	Mtb hypoxia inh growth	RN4220 kill	PrP 5UTR inh	Autofluor counter	BJeLR lethal	ugtP null kill
COc1cc(OC)cc(C(=O)N2CCN(c3ccccc3F)CC2)c1	15	6	5.2	-17	3094	-2	2
Cc1cc([N+](=O)[O-])cc(C)c1OCC(=O)N/N=C/c1ccc(OC(=O)c2ccccc2Br)cc1	nt	nt	nt	-19	2082	-13	nt
COc1ccccc1NC(=O)CSc1nnc(CC(=O)Nc2ccccc2F)n1C	1	-5	1.8	-1	6444	0	-1
COc1cc(C(=S)N2CCOCC2)cc(OC)c1OS(=O)(=O)c1ccc(NC(C)=O)cc1	2	8	5.8	-14	5189	7	1
COc1ccc(C2=NS(=O)(=O)N(C)C(C(=O)N3CCC(C(N)=O)CC3)=C2)cc1	2	-2	3.2	-7	5436	-4	-3
COc1ccc(N2C(=O)C(CC(=O)Nc3ccccc3)N(Cc3cccs3)C2=O)cc1 (configuration not stated)	-5	-1	4.9	1	6672	-1	0
CC(C)CNC(=O)c1ccc(Cl)c(Cl)c1	nt	nt	4.0	-11	9221	1	-8
C[C@H](Nc1ncnc2sc3c(c12)CCC3)C(=O)O	7	12	-18	-20	2982	-3	-4
CCOC(=O)c1[nH]c(C)c(C(=O)Nc2ccc3c(c2)OCCO3)c1C	4	7	2.5	-7	11611	1	5
CCOC(=O)N1CCC(N(CCOC)C(=O)Nc2ccc(CC)cc2)CC1	5	9	0.6	-2	9128	0	3
O=C(CNC1CC1)Nc1cc(C(F)(F)F)ccc1Cl	9	9	3.9	-23	3591	-4	-2
COC1OC(COC(=O)CNC(=O)OC(C)(C)C)C(O)C(O)C1O (configuration not stated)	14	0	2.3	-18	2680	-3	2
CN(C)/C=C(\C(=O)c1ccccc1)c1nnnn1-c1ccc(F)cc1	7	7	3.8	-21	5965	-6	8
N#CCC(=O)Nc1ccc(C(=O)NNC(=S)NC2CC2)cc1	-3	1	0.1	-5	?	nt	4
Cc1ccc(-n2c(C)nc3c(cnn3-c3ccc(F)cc3)c2=O)cc1	nt	nt	3.0	-15	2973	10	-1
O=C(COC(=O)Cc1ccc(S(=O)(=O)N2CCOCC2)s1)Nc1ccccc1Cl	9	10	3.6	-9	3631	nt	0
COC(=O)c1ccccc1NC(=O)c1noc2c1CCCC2	4	1	3.8	-9	19950*	2	9
Cc1ccc(S(=O)(=O)N(CC(=O)N2CCc3ccccc3C2)c2ccc(Cl)c(Cl)c2)cc1	5	5	2.7	-16	11042	-3	12
Cc1ccc(S(=O)(=O)Oc2ccccc2[N+](=O)[O-])cc1	6	3	2.0	-16	3721	nt	-2
C#CC[N+]1(CC#Cc2cccc(C)c2)CCCCC1	5	-2	-0.5	-34	4925	8	4
COCCCn1cnc2c(c1=O)c1nc3ccccc3nc1n2-c1ccccc1	-2	11	5.8	-9	2741	0	-21
CC1CCc2nc(/C(C#N)=C/c3cccnc3)sc2C1 (configuration not stated)	nt	nt	nt	-164	2796	4	nt
O=C(CN1C(=O)COc2ccc(S(=O)(=O)N3CCCCC3)cc21)NCc1ccccc1Cl	11	9	2.3	0	4924	27	1
Cc1ccc(CNC(=O)C(=O)NCC2OCCN2S(=O)(=O)c2ccc(Cl)cc2)cc1 (configuration not stated)	-6	-3	-1.4	-13	6070	-1	-1
CCC1CCCCN1CCCNC(=O)CN1C(=O)CSc2ccc(S(=O)(=O)N3CCC(C)CC3)cc21 (configuration not stated)	nt	nt	nt	-25	6037	3	nt
Cc1ccnc(SCC(=O)Nc2sc3c(c2C#N)CCCC3)n1	6	1	13	-15	2963	27	-1
CC[C@]12c3[nH]c4ccc(OC)cc4c3CCN1C(=O)C(CC(=O)NCCN1CCOCC1)C[C@@H]2C(=O)N1CCN(C(=O)C2CC2)CC1 (some centres not stated)	-7	-4	2.5	-19	3173	nt	2
O=c1oc2ccccc2c(Cl)c1CN1CCCCC1	2	-1	5.1	-34	8692	5	4
CCCCOc1ccc(/C(O)=C2/C(=O)C(=O)N(CCCOC)C2c2ccncc2)cc1C (configuration not stated)	9	6	6.7	-7	5462	3	7
CCOC(=O)CSc1nc(C)c2cc(OC)ccc2n1	3	3	5.1	-17	4380	-12	7
CC1CC(C)CN(C(=O)C(C)N2CCN(S(=O)(=O)c3ccc(C(F)(F)F)cc3)CC2)C1 (configuration not stated)	24	47	2.4	-22	3936	nt	5
Cc1ccc(C(=O)O/N=C/C2=C(Cl)c3ccccc3CC2)cc1	nt	nt	nt	-5	2819	-15	nt
CC(C)(CNC(=S)NCCc1ccccc1)CNC(=S)NCCc1ccccc1	-8	10	-3.4	-16	2074	9	-34
CCCCn1c(SCC(N)=O)nnc1-c1ccco1	-6	4	4.6	-51	22326*	1	1
Cc1cccc(NC(=O)Cn2cnc3c(oc4ccccc43)c2=O)c1	nt	nt	nt	-18	4437	-2	nt
Cc1noc(C)c1NC(=O)Nc1cccc2c1O[C@H](CN(C)S(=O)(=O)c1ccc(F)cc1)[C@@H](C)CN([C@H](C)CO)C2=O	5	3	-15	-53	3505	nt	-7
NC(=O)[C@@H]1CC2(CC(c3cccc(NC(=O)COc4ccc(Cl)cc4)c3)=NO2)CN1C(=O)COc1ccc(Cl)cc1 (some centres not stated)	nt	nt	nt	-16	3629	29	nt
CCn1c(CN2c3ccccc3Sc3ccccc32)n[nH]c1=S	7	2	-9.0	-14	6126	-10	-4
CC[C@H]1CC2CN3CCc4c([nH]c5c([C@H]6C[C@H]7[C@H](CC)CN(C)[C@@H](Cc8c6[nH]c6ccccc86)[C@H]7C(=O)OC)c(OC)ccc45)C(C(=O)OC)(C2)C13	nt	nt	8.6	nt	nt	4	10
O=C(N/N=C/c1ccccc1[N+](=O)[O-])C(=O)N1CCCC1	nt	nt	nt	-22	5673	5	nt
Cn1nc(C(=O)NCc2cccc(F)c2)cc1C(=O)NCc1cccc(F)c1	-1	-2	1.7	2	7260	nt	1
COc1cccc(-c2ccc(NC(=O)C3CCCN(Cc4cnn(C(C)C)c4)C3)cc2)c1 (configuration not stated)	0	-1	-4.7	-12	nt	10	-7
O=C1CC2(CCN(C(=O)C(=O)c3c[nH]c4ccccc34)CC2)Oc2ccccc21	-16	6	-2.4	5	5449	0	-5
O=C(N/N=C/C=C\c1ccco1)c1ccccn1	nt	nt	nt	-28	6010	12	nt
COc1ccc(-c2nc(C#N)c(N3CCN(c4cccc(Cl)c4)CC3)o2)cc1OC	1	4	8.6	-17	5251	6	2

The last 2 records of the part before lead into the next:
SMILES	Mtb hypoxia inh	Mtb hypoxia inh growth	RN4220 kill	PrP 5UTR inh	Autofluor counter	BJeLR lethal	ugtP null kill
O=C(N/N=C/C=C\c1ccco1)c1ccccn1	nt	nt	nt	-28	6010	12	nt
COc1ccc(-c2nc(C#N)c(N3CCN(c4cccc(Cl)c4)CC3)o2)cc1OC	1	4	8.6	-17	5251	6	2
O=C(C=Cc1ccccc1)NCCSCc1ccccc1Cl	7	5	-2.9	nt	nt	nt	7
CC1=NN(C(=O)c2ccc(Br)cc2)C(O)(C(F)(F)OC(F)(F)F)C1 (configuration not stated)	-61	19	5.1	-14	3687	-6	5
COc1ccc(CC(=O)N/N=C(\C)CC(=O)NCc2ccco2)cc1OC	nt	nt	nt	-27	4258	0	nt
C[C@]12C(=O)N(c3cccc(F)c3)C(=O)N1C1c3ccccc3OCC1C2c1ccccc1 (some centres not stated)	-4&-8	19&1	-3.3&4.1	nt	nt	nt	3&-7
CCCCCn1c(=O)[nH]c2cc(C(=O)NCCc3ccc(OC)c(OC)c3)ccc2c1=O	-9	2	-6.1	-20	8371	-12	-8
CC1(C)N=C(c2ccc(Cl)cc2Cl)C(=O)N1	-2	-5	2.6	-13	22553*	-10	4
O=C(COC(=O)c1ccccc1Cc1ccccc1)NC1CCS(=O)(=O)C1 (configuration not stated)	9	-28	0.1	7	3984	-7	-7
COc1ccc(NC2CCCN(C(=O)CN3CCOC3=O)C2)cc1 (configuration not stated)	3	-6	1.9	-25	6153	-5	5
Cc1cnn(-c2cc(NN=Cc3ccccc3)ncn2)c1	-1	1	2.5	nt	nt	nt	-5
COc1ccc2cc(CCl)c(Cl)nc2c1	5	16	2.3	-40	4480	1	1
NS(=O)(=O)c1ccc(NC(=O)CSc2nc3c(cnn3-c3ccccn3)c(=O)[nH]2)cc1	0	-8	3.5	-9	6269	nt	4
CCN(CC)C(=O)C1CCCN(C/C=C/c2ccccc2[N+](=O)[O-])C1 (configuration not stated)	6	-2	1.8	-16	3893	-1	5
CC(=O)NC(c1ccco1)c1ccc2cccnc2c1O (configuration not stated)	nt	nt	nt	18	3356	28	nt
Cc1csc(NC(=O)CSc2nncc(=O)n2N)n1	3	8	7.3	-11	4177	-11	3
COC(=O)c1sc(N)c(C(=O)OC)c1COC(=O)CCNS(=O)(=O)c1ccc(C)cc1	7	10	0.2	-24	9864	-14	-4
CN(C)CCOc1ncnc2c1oc1ccccc12	5	4	4.7	-7	18425*	7	3
Cc1ccc(NC(=O)CN2C(=O)N/C(=C/c3cccn3-c3ccc(C(=O)O)cc3)C2=O)cc1	12	5	14	-63	2180	nt	2
Cc1nc2c(oc3ccccc32)c(=O)o1	-5	-6	6.8	-21	16908*	-7	3
COc1ccc([C@@H]2CC=C(C(=O)O)[C@H](c3ccc(Br)cc3)N2S(=O)(=O)c2ccc(C)cc2)cc1OC	-4	-14	9.2	-4	3907	nt	4
Cc1ccc(N2C(=O)[C@@H]3C(C(=O)CCN4C(=O)c5ccccc5C4=O)=NN[C@@H]3C2=O)cc1	8	-2	4.0	-7	2596	-1	6
Cc1cccc(NC(=O)CSc2nc(N)c(NC(=O)c3ccccc3F)c(=O)[nH]2)c1	3	10	1.3	-27	6354	10	3
Cc1n[nH]c(=S)n(N=Cc2ccccn2)c1=O	10	3	11	nt	nt	nt	4
Cc1ccc2nc(NC(=O)c3ccc(N4C(=O)CCC4=O)cc3)sc2c1	1	1	5.8	-25	5039	4	-10
COc1cccc(NC(=O)Nn2cnnc2)c1	4	11	0.2	1	5718	1	-5

Bioassay records (PubChem BioAssay)
